# A1 inh: inhibitors of the anti-apoptotic protein A1, read as caspase activation; caspase activation, % (concentration not given with the values); AID 2462; MEF A1-2A-BIM cells, Caspase-Glo 3/7 luminescence, 3 h; percent of clofoctol response, vehicle zero; 330,000 compounds, 0.066% hits;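 active = over half of replicate activation scores above 10%, or exactly half above 10 with the replicate mean above 10; inconclusive = replicate mean below 10 yet half the replicates above 10; inactive = over half of replicates below 10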;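 also: wells of about 30 µL received 50 nL stock; many hits fall short of the cut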
# AF4-AF9 inh: MLL-AF4/AF9 protein interaction inhibition. inhibition, % at 10 µM. 350,000 compounds, 0.47% hits. AlphaScreen, biotin-AF4 peptide binding to FLAG-AF9. AID 651704. P42568;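 active = every replicate reaching a set inhibition limit, whatever the replicate mean, cut at about 25% in these data; inconclusive = mean inhibition reaches that limit but some replicates miss it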;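 also: 0% = plate neutral control median and 100% = total signal loss; the record names both 10 and 1 µM as test concentration; the first replicate is given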
# Target sequence (P42568 whole entry, looked up): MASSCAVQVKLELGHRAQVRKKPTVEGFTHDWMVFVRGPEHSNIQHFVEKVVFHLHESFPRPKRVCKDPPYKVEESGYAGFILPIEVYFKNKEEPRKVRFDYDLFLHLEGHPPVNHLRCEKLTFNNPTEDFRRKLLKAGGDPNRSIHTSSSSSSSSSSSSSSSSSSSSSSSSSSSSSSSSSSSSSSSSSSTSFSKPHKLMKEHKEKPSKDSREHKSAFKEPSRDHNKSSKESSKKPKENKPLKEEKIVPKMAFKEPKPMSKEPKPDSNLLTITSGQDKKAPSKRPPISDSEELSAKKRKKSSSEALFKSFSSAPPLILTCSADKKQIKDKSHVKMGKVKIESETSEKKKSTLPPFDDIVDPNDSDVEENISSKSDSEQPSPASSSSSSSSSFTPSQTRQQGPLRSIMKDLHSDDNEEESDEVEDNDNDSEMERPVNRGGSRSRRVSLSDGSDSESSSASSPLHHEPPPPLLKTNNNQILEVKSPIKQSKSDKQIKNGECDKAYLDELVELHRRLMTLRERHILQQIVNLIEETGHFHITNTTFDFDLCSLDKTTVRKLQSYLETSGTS
# UCH37 DUB inh: human UCH37 deubiquitinating enzyme inhibition; AID 588478; inhibition, % (concentration not given with the values); 330,000 compounds, 0.33% hits; purified proteasome/UCH37, Ub-AMC cleavage fluorescence; Q9Y5K5;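 active = mean of two replicates above 20%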;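 also: 0% = compound-free wells with enzyme and 100% = wells lacking proteasome; stock transfer was 100 nL into about 20 µL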
# Target sequence (Q9Y5K5 whole entry, looked up): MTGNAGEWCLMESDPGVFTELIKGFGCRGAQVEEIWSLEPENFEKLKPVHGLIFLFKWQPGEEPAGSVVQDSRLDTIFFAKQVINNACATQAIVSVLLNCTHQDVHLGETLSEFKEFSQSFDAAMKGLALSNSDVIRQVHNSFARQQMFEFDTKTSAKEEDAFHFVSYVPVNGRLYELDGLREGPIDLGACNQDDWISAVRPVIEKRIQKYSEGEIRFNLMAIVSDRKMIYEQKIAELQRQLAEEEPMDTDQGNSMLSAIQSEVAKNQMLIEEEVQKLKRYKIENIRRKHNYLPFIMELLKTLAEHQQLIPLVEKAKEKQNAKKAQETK
#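 Assay system: Proteasome-bound UCH37. Buffer or medium: pH 7.4 Tris-HCl (50 mM) with ovalbumin, ATP-MgCl2, DTT. Incubation: 30 min preincubation with enzyme, 25 min cleavage at room temperature. Measured by: fluorescence, ex 355 nm, em 460 nm. Read-out basis: percent inhibition. Control set: wells without proteasome as full block, compound-free enzyme plus substrate as uninhibited.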
# T cruzi inh: T. cruzi replication inhibition. T. cruzi beta-gal in NIH3T3, luminescence, 90 h. inhibition, % (no concentration beside the values). 300,000 compounds, 1.4% hits;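 active = mean inhibition across valid replicates above about 55%, limit read from the data; inconclusive = mean below that limit but half or more replicates reach it; inactive = mean below it, under half of replicates reach it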;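 also: signal also drops with host cell toxicity which is not excluded here; 0% = plate median of DMSO wells and 100% = zero luminescence signal; higher percent means less beta-gal luminescence so fewer parasites; stock transfer was 50 nL into about 50 µL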
# rRNA inh HTS: inhibits bacterial ribosomal RNA function over humanized ribosomes; E. coli WT GFP vs humanized-ribosome RFP mutants, fluorescence, 24 h; hits give low values; DMSO median 0, no signal -100; 350,000 compounds, 1.6% hits; GFP signal change (wild-type ribosome), % (test concentration not listed);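 active = significant combined selectivity score with lowered wild-type GFP, culture density cut under 30%, mutant RFP and density less affected; inactive = any of these conditions unmet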; also: one replicate is shown; some compounds called inactive have numbers as strong as hits
# Beta apoptosis: blocks beta cell apoptosis; INS-1E cytokine-induced death, ATP luminescence, 48 h; percent of positive-control rescue, neutral wells zero; protection from apoptosis, % (concentration not given with the values); 300,000 compounds, 0.8% hits; AID 435005;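 active = all replicates at 75% or more, or half of them and the mean; inconclusive = half reach 75% but not the mean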;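 also: 0% = cytokine-treated negative control wells and 100% = positive control rescue; higher means more ATP so stronger rescue from cytokine killing; wells of about 40 µL received 100 nL stock; the first replicate is given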
# FGF22 binding: binders of recombinant human FGF22 by thermal shift. Q9HCT0. SYPRO orange fluorescence; percent of sucrose octasulfate shift, DMSO zero. calls only at 9.99 µM. 340,000 compounds, 1.5% hits. AID 651658;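 active = melting point raised past a set limit in the mean and every replicate; inconclusive = no clear call; three in four hits are not shown here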
# Target sequence (Q9HCT0 whole entry, looked up): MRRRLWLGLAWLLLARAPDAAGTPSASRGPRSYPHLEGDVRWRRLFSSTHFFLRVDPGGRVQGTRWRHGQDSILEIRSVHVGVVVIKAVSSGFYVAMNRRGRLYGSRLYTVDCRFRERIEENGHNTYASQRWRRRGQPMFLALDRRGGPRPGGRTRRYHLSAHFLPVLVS
# Ecoli growth: blocks Escherichia coli growth; OD600, 23 h; hits give low values; OD600 absorbance (concentration not given with the values); 330,000 compounds, 0.21% hits; AID 1053175;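 active = OD600 absorbance below the run mean of sample wells minus 3.6 SD, in any replicate, cut at about 0.56 in these data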;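 also: stock transfer was 300 nL into about 60 µL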
# rRNA inh HTS OD600: second read-out of rRNA inh HTS, no call of its own (marks repeat the call); OD600 change, %; measured here: OD600 growth;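 optical density of the mix in the first replicate; 0 = DMSO median and -100 = no signal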
# rRNA inh HTS RFP: second read-out of rRNA inh HTS, no call of its own (marks repeat the call); RFP signal change, %; measured here: RFP humanized mutant strains;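 first replicate; 0 = DMSO median and -100 = no signal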
# * marks the source's active call; other numbers are inactive results; i = inactive; ? = inconclusive; . = not tested or not shown; & = joins results of further samples. Not all compounds are listed, so the mix of outcomes need not match the whole.
SMILES,A1 inh,AF4-AF9 inh,UCH37 DUB inh,T cruzi inh,rRNA inh HTS,rRNA inh HTS OD600,rRNA inh HTS RFP,Beta apoptosis,FGF22 binding,Ecoli growth
COC(=O)c1ccc(C(=O)OC)c(NC(=O)CN(c2ccc3c(c2)OCO3)S(C)(=O)=O)c1,0.3,4.8,-0.4,4,14,9,-7.2,2,i,0.69
CCOC(=O)c1c(C)nc2ccc(Cl)cc2c1-c1ccccc1,-0.8,-20,-1.4,11,-26,-47,-5.4,3,i,0.69
CCCc1nnc(NC(=O)CSc2nc3ccccc3[nH]2)s1,1.2,-1.6,2.6,6,-29,-24,1.2,-7,i,0.63
Cc1ccc(NC(=O)CN2C(=O)NC3(CCCC3)C2=O)nc1,0.1,-0.6,4.4,-22,-1,1,-3.9,-4,i,0.64
CCSc1nc2ccccc2c(=O)n1C1CCOC(C)(C)C1 (centres undefined),0.7,-1.8,1.6,13,-38,-57,-2.6,-11,i,0.67
CCc1ccc(C(C)NC(=O)C2(C)CC2(Br)Br)cc1 (centres undefined),-0.3,.,6.0,1,.,.,.,-7,.,0.7
Cc1c(NC(=O)CCSc2ccc(Cl)cc2)c(=O)n(-c2ccccc2)n1C,-0.3,.,5.9,5,.,.,.,4,.,0.79
COc1ccc(-c2ccc(NS(=O)(=O)c3cccc([N+](=O)[O-])c3)cc2)nn1,-0.5,-1.5,3.1,7,3,-1,-0.6,.,i,0.69
COc1ccc(OC)c(C(=O)c2ccccc2)c1,0.3,-29,2.6,2,1,-1,0.6,-10,i,0.71
FC(F)(F)c1cnc(C(c2ccccn2)c2ncn[nH]2)c(Cl)c1 (centres undefined),0.3,-0.6,0.5,-21,1,-7,-0.6,.,i,0.64
COc1ccc(C(NC(=O)C(C)C)c2c(O)ccc3ccccc23)cc1 (centres undefined),0.0,-1.3,-6.2,-17,-20,-20,-1.8,-3,i,0.72
CCN(CC)S(=O)(=O)c1ccc(NC(=O)c2cnccn2)cc1,-1.3,0.7,1.1,-5,7,10,-2.6,7,i,0.7
O=C(N/N=C\c1ccc(OC(=O)c2ccco2)cc1)c1ccc(Cl)cc1,0.7,-0.3,.,10,9,1,-3.0,0,i,.
COc1ccc(OC)c(S(N)(=O)=O)c1,1.1,.,4.4,1,.,.,.,0,.,0.69
CC(=O)c1cc2c(=O)c3cc(C)ccc3oc2nc1C,-9.5,.,-9.7,-2,.,.,.,12,.,0.73
C=CCOC(=O)C1=C(C)N=C2SCCC(=O)N2C1c1cccs1 (centres undefined),0.0,.,11,3,.,.,.,-3,.,0.77
S=C(NCCc1ccccc1)NC1CCCCCC1,3.1,.,0.8,-19,.,.,.,3,.,0.65
COc1ccccc1OC(C)C(=O)Nc1ccc2c(c1)OCCO2 (centres undefined),0.0,0.5,1.7,-3,0,4,0.1,8,i,0.69
O=S1(=O)CCN(C(CO)c2ccccc2)CC1 (centres undefined),-1.4,-2.6,0.7,-5,18,18,4.2,-1,i,0.67
COc1cc(OC)cc(-c2cc(NC(C)=O)n[nH]2)c1,-0.7,2.6,0.7,-11,1,-5,6.9,-2,i,0.71
Cc1ccc(Nc2nc(-c3ccccc3)c(CC(=O)O)s2)cc1,-0.1,-7.5,6.7,26,-16,-12,26,-2,i,0.68
CCCCC[C@@H]1C=C(C(=O)O)[C@H](c2cccc(C)c2)N1S(=O)(=O)c1ccc(C)cc1,0.1,0.4,1.0,.,-14,-21,6.2,-5,i,0.67
CCOC(=O)COc1ccc(C(=O)CC)cc1OC,0.4,0.6,1.5,1,15,3,-0.5,-5,i,0.71
Cc1occc1C(=O)N(C)CC1CCCN(CCc2ccccc2F)C1 (centres undefined),-0.1,0.7,1.1,36,3,9,-1.2,5,i,0.65
C[C@H]1O[C@@H](O[C@H]2[C@@H](O)C[C@H](O[C@H]3[C@@H](O)C[C@H](O[C@H]4CC[C@@]5(C)[C@H](CC[C@@H]6[C@@H]5C[C@@H](O)[C@]5(C)[C@@H](C7=CC(=O)OC7)CC[C@]65O)C4)O[C@@H]3C)O[C@@H]2C)C[C@H](O)[C@@H]1O,0.2&-0.3,-2.4,0.9,8&-7,.,.,.,6&9,i,.
SMILES,A1 inh,AF4-AF9 inh,UCH37 DUB inh,T cruzi inh,rRNA inh HTS,rRNA inh HTS OD600,rRNA inh HTS RFP,Beta apoptosis,FGF22 binding,Ecoli growth
COCCCNC(=O)Cn1nc(-c2cccc(OC)c2)ccc1=O,0.7,-1.5,1.0,-18,3,6,-0.7,-8,i,0.71
CCN(C(C)=O)c1nc(CSc2nnc(NC(C)C)s2)cs1,0.0,.,0.4,-7,.,.,.,-19,.,0.67
COc1cccc(C(=O)N2N=C(c3ccccn3)CC2(O)C(F)(F)F)c1 (centres undefined),0.0,2.9,2.7,-21,-34,-47,-8.6,9,i,0.66
CCOC(=O)c1cc(-c2ccccc2)nn1CC1CC(c2cccc([N+](=O)[O-])c2)=NO1 (centres undefined),-1.4,5.3,-0.3,4,-4,-16,-0.4,-1,i,0.68
CCOC(=O)C(Cc1ccccc1)NC(=O)CNC(C)=O (centres undefined),0.6,.,3.5,-4,.,.,.,-7,.,0.71
CCCC(=O)N1CCN(c2nc3ccccc3s2)CC1,-3.3,0.4,1.8,-4,-4,-1,-2.3,3,i,0.68
COc1ccc(OCCOC(=O)c2ccc(-n3cnnn3)cc2)cc1,-0.4,.,3.0,-3,.,.,.,-3,.,0.7
CN(C)CCN(C(=O)c1ccc(S(=O)(=O)N(C)c2ccccc2)cc1)c1nc2cc3c(cc2s1)OCCO3,0.6,-0.5,5.5,?,2,-7,0.4,-12,i,0.67
O=C1c2ccccc2C(=O)N1OCCOCCOCCBr,0.8,.,2.0,-2,.,.,.,2,.,0.69
COc1ccccc1C(=O)N(NC(=O)Oc1ccccc1)C(C)(C)C,0.9,-103,0.9,4,15,6,4.9,4,i,0.7
COc1ccc(NC(=O)C(NC(=O)CC2NC(=O)NC2=O)c2ccccc2)cc1 (centres undefined),0.1,0.4,2.8,-2,9,18,4.1,-5,i,0.68
CCc1cc(=O)oc2c3c(cc(OCC(=O)NCCCn4ccnc4)c12)OC(C)(C)CC3,-0.9,0.4,-426,23,.,.,.,-1,i,0.67
Cc1ccc(C(C)(O)CS(=O)(=O)Cc2ccccc2Cl)cc1 (centres undefined),0.6,0.0,2.7,-6,-4,-21,2.6,-7,i,0.66
O=C(CSc1ncn[nH]1)NCCOc1ccccc1,0.9,.,-0.9,-12,.,.,.,-6,.,0.66
C=CCN1C(=O)C(Cc2ccc(SC(F)F)cc2)SC1=Nc1ccc(C(=O)O)cc1 (centres undefined),0.1,-2.3,4.1,-10,-19,-19,-5.0,-5,i,0.71
CCn1c(=O)cc(OCC(=O)NCC2CCCO2)c2ccccc21 (centres undefined),-0.2,.,1.5,-5,.,.,.,-3,.,0.69
CCOc1ccc(CCNC(=O)CSCc2ccc(C)cc2)cc1OCC,-0.5,-2.3,-1.4,4,-14,2,-1.5,-5,i,0.71
CCOc1ccc(NC(=O)NCCN2CCN(c3cccc(C)c3C)CC2)cc1,2.5,-1.3,1.7,11,-1,6,-0.2,-4,i,0.61
O=C(COC(=O)/C=C/c1cccc(Cl)c1)NC1CC1,-0.1,-3.2,2.0,.,17,15,0.1,-3,i,0.65
COc1ccc(Nc2nnc(SC(C(=O)Nc3ccc(OC)c(Cl)c3)c3ccccc3)s2)cc1 (centres undefined),-0.9,1.6,5.0,3,-7,0,3.6,-1,i,0.73
COC(=O)c1cc(C(=O)c2cc(F)ccc2O)cn2c(=O)c3c(C)c(C)sc3nc12,0.3,1.2,3.4,0,19,1,1.8,1,i,0.71
O=C(O)c1ccc(CSc2nc3ccccc3o2)cc1,-16,.,-0.3,-19,.,.,.,-2,.,0.75
C=CCNC(=O)COc1coc(CN2CCN(Cc3ccccc3)CC2)cc1=O,0.0,-2.5,1.0,4,-2,2,-0.1,.,i,0.71
O=C(Oc1ccccc1)c1ccccc1,.,-3.0,2.4,.,4,9,-2.1,.,i,0.62
Cc1cccc(NC(=S)N/N=C(\c2ccccc2)C(C)C)c1,1.0,2.3,.,23,-22,-7,-4.9,10,i,.

# Random excerpt: 7 compounds from above.
SMILES,A1 inh,AF4-AF9 inh,UCH37 DUB inh,T cruzi inh,rRNA inh HTS,rRNA inh HTS OD600,rRNA inh HTS RFP,Beta apoptosis,FGF22 binding,Ecoli growth
COc1ccccc1C(=O)N(NC(=O)Oc1ccccc1)C(C)(C)C,0.9,-103,0.9,4,15,6,4.9,4,i,0.7
CCN(CC)S(=O)(=O)c1ccc(NC(=O)c2cnccn2)cc1,-1.3,0.7,1.1,-5,7,10,-2.6,7,i,0.7
CCCc1nnc(NC(=O)CSc2nc3ccccc3[nH]2)s1,1.2,-1.6,2.6,6,-29,-24,1.2,-7,i,0.63
CCOC(=O)c1cc(-c2ccccc2)nn1CC1CC(c2cccc([N+](=O)[O-])c2)=NO1 (centres undefined),-1.4,5.3,-0.3,4,-4,-16,-0.4,-1,i,0.68
CCc1cc(=O)oc2c3c(cc(OCC(=O)NCCCn4ccnc4)c12)OC(C)(C)CC3,-0.9,0.4,-426,23,.,.,.,-1,i,0.67
COC(=O)c1ccc(C(=O)OC)c(NC(=O)CN(c2ccc3c(c2)OCO3)S(C)(=O)=O)c1,0.3,4.8,-0.4,4,14,9,-7.2,2,i,0.69
COc1ccc(OC)c(C(=O)c2ccccc2)c1,0.3,-29,2.6,2,1,-1,0.6,-10,i,0.71

# (next part)
SMILES,A1 inh,AF4-AF9 inh,UCH37 DUB inh,T cruzi inh,rRNA inh HTS,rRNA inh HTS OD600,rRNA inh HTS RFP,Beta apoptosis,FGF22 binding,Ecoli growth
Cc1ccc(/C=N/NC(=O)c2ccc(NC(=O)c3ccc(Cl)cc3)cc2)o1,0.3,0.1,.,-10,0,-2,-2.9,-6,i,.
O=C(c1ccc(OC2CCN(Cc3ccc(F)cc3)CC2)cc1)N1CCCC1,2.9,-3.8,3.2,9,-1,2,-0.5,-2,i,0.7
Cc1nn(C)c(C)c1CN(C(=O)CCc1nnc(Cc2c[nH]c3ccccc23)o1)C(C)C,0.5,-0.3,0.1,9,12,-7,1.0,-11,i,0.69
CCOc1ccc(S(=O)(=O)N2CCOCC2)cc1NC(=O)CN1C(=O)NC(C)(c2ccccc2)C1=O (centres undefined),0.4,-0.2,4.8,-8,2,3,-1.2,2,i,0.7
O=C(COc1ccc(S(=O)(=O)N2CCOCC2)cc1)NCCN1CCOCC1,0.5,-1.8,0.5,-7,1,7,-2.5,-1,i,0.71
Cc1ccccc1Oc1cc(-n2ncc(Cl)c(Cl)c2=O)ncn1,-1.2,-0.5,5.4,.,0,5,0.3,99*,i,0.68
CC(C)CN1C(=O)CC(Sc2ccccc2C(=O)O)C1=O (centres undefined),-0.5,.,2.7,-15,.,.,.,-10,.,0.7
